ugtP null kill: growth inhibition of ugtP-null S. aureus, primary screen, RN4220 ugtP deletion, OD600; 16 h; some inactives read as strong as hits; growth inhibition, % (no concentration beside the values); 330,000 compounds, 0.54% hits; AID 1259309, 2017;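 active = z-score under -3 and OD600 up to 0.15 on both plates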;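 note: plate controls were untreated wells for no effect and antibiotic for full effect; wells of about 80 µL received 100 nL stock; the first replicate is given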
PrP 5UTR inh: inhibition of PrP 5' UTR reporter expression | inhibition, % (no concentration beside the values) | cell-based PrP 5' UTR mRNA reporter, plate reader | 340,000 compounds, 0.35% hits;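 active = every replicate at 50% or more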;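 note: 0 = median of the neutral control wells; tested in H4 reporter cells; numbers are from one replicate; inactives centre near -14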
Autofluor counter: counter-screen for toxin protease inhibitors: compound fluorescence | compound autofluorescence counterscreen, microsphere flow cytometry; stronger effect = higher value | fluorescence intensity (test concentration not listed) | 360,000 compounds, 3.1% hits | AID 624483;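 active = at least 3 SD above the mean of all compounds, about 16000 in these data; inconclusive = too few beads counted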;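 note: 100 nL of 1 mM stock went into each well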
BJeLR viability: MLPCN primary cell-based screen for lethality selective to Ras in HRASV12 cells; inhibition, % (no concentration beside the values); AID 1554, 2009; BJeLR (HRASV12) viability, CellTiter-Glo ATP luminescence, 48 h; reference of the scale not given here; 300,000 compounds, 0.17% hits;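 active = replicate mean above 50%; inconclusive = above 50% but judged a plate artefact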;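 note: 50 nL library stock added to about 25 µL; numbers are from one replicate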
Mtb hypoxia inh: PubChem AID 1159583 | M. tuberculosis hypoxia-regulated fluorescent reporter, fluorescence | fluorescence inhibition, % (no concentration beside the values) | 300,000 compounds, 0.1% hits;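 active = 35 to 45% if threefold the growth effect, above 45% if 1.5-fold the growth effect; inactive = the rest, general growth blockers included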;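 note: wells of about 50 µL received 100 nL stock; 0% = vehicle wells and 100% = reference inhibitor wells; whole bacteria with a GFP reporter of the hypoxia response; strong numbers were not always called active; many hits fall short of the cut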
Sa RN4220 lethal: growth inhibition of S. aureus RN4220, primary screen, OD600. 16 h. inhibition, % (concentration not given with the values). 330,000 compounds, 0.33% hits. AID 1259311, 2017;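 active = z-score of -3 or lower and OD600 up to 0.18 on both plates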;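 note: plate controls were untreated cells for no effect and reference antibiotic for full effect; stock transfer was 100 nL into about 80 µL; one replicate is shown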
Mtb hypoxia inh growth: second read-out of Mtb hypoxia inh, no call of its own (marks repeat the call); growth inhibition, %; measured here: M. tuberculosis growth (absorbance);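 0% = vehicle and 100% = reference antibiotic; read after six days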
* = called active by the depositor; ? = inconclusive; nt = not tested or not shown.

SMILES	ugtP null kill	PrP 5UTR inh	Autofluor counter	BJeLR viability	Mtb hypoxia inh	Mtb hypoxia inh growth	Sa RN4220 lethal
COc1cc(C(=O)NCC(=O)N/N=C/c2cccc(OC(=O)c3ccco3)c2)cc(OC)c1OC	nt	-30	2165	-4	nt	nt	nt
Cc1ccc(-c2nnn(CC(=O)N(c3ccccc3F)C(CC(C)C)C(=O)NCC3CCCO3)n2)cc1 (centres undefined)	6	-33	16688*	0	4	6	3.7
CN1CCN(C(=O)C2=C[C@H](c3ccc4c(c3)OCO4)C[C@H](OCCCCO)O2)CC1	nt	-18	3750	9	nt	nt	nt
O=C(NCCC(c1ccccc1)c1ccccc1)c1cccs1	16	-4	2494	2	6	2	5.2
Cc1occc1C(=O)N/N=C/c1ccc(-c2cccc([N+](=O)[O-])c2)o1	nt	-18	6024	-5	nt	nt	nt
O=C(O)CCCN1C(=O)C2C3c4ccccc4C(c4ccccc43)[C@@H]2C1=O (some centres undefined)	7	-11	4026	2	-3	4	4.7
Cc1cc(=O)[nH]c(Nc2ccc(C(=O)OC(C)C)cc2)n1	4	-26	3099	5	nt	nt	0.5
O=C(Nc1cc2c3c(c1)CC(=O)N3CCC2)c1ccccc1Br	8	-38	6003	10	0	-6	5.0
O=C(c1ccco1)N1CCN(Cc2ccc(Br)cc2)CC1	9	-14	3521	-3	-4	6	3.8
Cc1ccsc1C(=O)OC(C)C(=O)Nc1ccc(Cl)cn1 (centres undefined)	8	-10	3845	nt	7	11	-0.8
Cc1cccnc1NC(=S)Nc1ccc(F)cc1F	12	-33	3858	6	12	17	3.5
CCSc1c([N+](=O)[O-])c(=O)n(-c2ccccc2)c2ccccc12	2	-31	nt	0	10	3	2.5
O=C(Nc1ccc2c(c1)OCO2)c1cc2nc(C3CC3)cc(C(F)(F)F)n2n1	-6	-41	9919	1	2	4	0.7
CCOc1nc(-c2ccccc2)ccc1-c1noc(-c2ccncc2)n1	-17	-19	8342	-3	7	9	0.7
CCS(=O)(=O)c1nc(S(=O)(=O)c2ccc(Cl)cc2)c(N2CCc3ccccc3C2)s1	-10	-14	2139	-4	nt	nt	2.3
Cc1cccc(N(C(=O)c2snc(C(N)=O)c2N)C(C(=O)NC2CCCC2)c2ccc(C)o2)c1 (centres undefined)	20	-27	3743	2	-3	6	8.3
CN1CCN(C(=O)c2cn(C)c3ccc(S(=O)(=O)N(C)C4CCCCC4)cc3c2=O)CC1	3	-10	4979	nt	nt	nt	2.4
O=C(Cc1ccc(S(=O)(=O)N2CCCC2)s1)N1CCN(c2ccc(F)cc2)CC1	0	-58	3914	0	4	1	5.7
COc1cccc(N=Nc2c(=O)[nH]n3c(=O)c4c([nH]c23)CCC4)c1	-7	-5	2178	7	11	-3	8.2
Cc1cc(/C=C2/NC(=O)N(c3ccccc3)C2=O)c(C)n1C(C)C	8	-43	2749	-2	8	6	6.5
COc1ccc(-c2c(NC(=O)c3ccco3)oc3ccccc3c2=O)cc1	-1	-2	5626	1	-5	4	0.6
COc1ccc(CCNC(=O)CSCc2n[nH]c(=O)[nH]2)cc1OC	3	-84	20702*	1	4	5	0.9
CC(C)(O)C#Cc1ncc(C(F)(F)F)cc1Cl	6	-20	4381	-3	3	1	5.0
CC1CCCN(C(=O)COC(=O)C2CCN(S(=O)(=O)c3c(Cl)cccc3Cl)CC2)C1 (centres undefined)	6	-9	7015	6	14	2	4.2
Cc1ccc(NC(=S)N(Cc2ccccc2)C(C)C)cc1	13	-24	3623	-1	5	7	2.8
CC(=O)Nc1ccc(C(=O)COC(=O)c2ccco2)c(F)c1	0	-29	5444	nt	1	1	2.7
Cc1ccc(C=NNC(=O)Cc2noc3ccccc23)cc1	-1	nt	nt	nt	3	0	-0.6
O=C(O)/C=C/C(=O)NCC1CCC(CNC(=O)/C=C/C(=O)O)CC1 (centres undefined)	-3	nt	nt	-11	-17	-6	-3.1
COCCNC(=O)C1CCC(Cn2c(=S)[nH]c3ccccc3c2=O)CC1 (centres undefined)	-4	-10	3570	3	7	12	0.2
S=c1[nH]nc(-c2cccnc2)o1	3	-16	9600	-3	-1	8	4.7
COc1cc2c(c(OC)c1OC)-c1ccc(O)c(=O)cc1[C@@H](N)CC2	5	-13	4001	nt	nt	nt	-1.9
Cc1ccc(S(=O)(=O)Nc2ccc(NC(=O)c3cccs3)cc2)cc1	6	-22	4778	4	12	-3	7.5
CC(=O)c1cccc(NC(=O)N2CCCC2C(=O)Nc2c(C)cccc2C)c1 (centres undefined)	-6	-8	4727	1	nt	nt	-0.6
OC(CNCCC1C=Nc2ccccc21)Cn1c2ccc(Cl)cc2c2cc(Cl)ccc21 (centres undefined)	101*	2	8483	105*	-3	2	100*
O=C(OCC(=O)N1CCN(c2ccccc2)CC1)c1ccccn1	14	-14	3288	6	13	7	5.2
O=C(c1ccccc1)N1CCN(Cc2c[nH]c3ccccc23)CC1	11	-10	3442	1	nt	nt	4.2
Cc1ccc(C)c(C(=O)CCC(=O)N2CCN(c3ncccn3)CC2)c1	8	-8	3448	7	2	6	6.8
Cc1cc2c(cc1C)C(=NNC(=O)c1ccccn1)CCC2	-7	nt	nt	nt	18	20	3.9
COc1ccccc1NC(=O)C(C)OC(=O)C1CCC(C(C)(C)C)CC1 (centres undefined)	-26	-9	4985	9	-8	-4	-8.6
CNC(=S)N(CCc1cccc(C)c1)Cc1cc2cc(OC)c(OC)cc2[nH]c1=O	-4	-29	2202	-6	-1	5	0.9
C=CCn1c(CCCNC(=O)C(C)(C)C)nc2ccccc21	-7	-20	5360	-14	9	14	-11
Cn1cccc1-c1cc(C(=O)N/N=C/c2ccc([N+](=O)[O-])cc2)[nH]n1	nt	-27	3221	5	nt	nt	nt
CCC(=O)N/N=C(\C)CC(=O)Nc1ccc(F)cc1	nt	-18	4062	3	nt	nt	nt
COc1ccc2cc(C=NNC(=O)c3ccc(CN(c4ccc(C)c(C)c4)S(C)(=O)=O)cc3)c(Cl)nc2c1	1	nt	nt	nt	7	10	5.5
CC(C)N1C(=O)N(c2cccc(Cl)c2)C(C)(O)CC1(C)C (centres undefined)	15	0	3851	-8	10	7	1.2
Cc1ncc([N+](=O)[O-])n1Cc1ccc(Cl)cc1	9	-52	6031	5	-1	10	-1.4
Cc1oc(C(=O)Nc2ccc(C(=O)O)cc2)cc1COc1ccccc1	10	-7	16440*	9	4	9	3.3
N#Cc1ccc(Oc2ccc(S(=O)(=O)N3CCCCC3)cn2)cc1	6	-1	?	-6	-8	-2	3.9
CN1CCN(C(=O)CCN2C(=O)/C(=C/c3ccccc3Cl)SC2=S)CC1	16	-11	4496	-3	13	3	12
Cc1cccc(-n2c(C)nc3cc(C(=O)NCc4ccc5c(c4)OCO5)ccc32)c1	70	-10	4779	-3	2	5	-8.0
Cc1cc(C)nc(Nc2ncc(O)n2-c2ccc(C)c(Cl)c2)n1	1	-8	3132	-12	nt	nt	0.8
Cc1ccccc1NS(=O)(=O)c1ccc(OCC(=O)NCC2CCCO2)cc1 (centres undefined)	2	0	5011	4	14	6	6.7
O=[N+]([O-])c1nn(-c2ccccc2)[n+]([O-])c1N1CCN(c2ccccc2)CC1	6	-18	4168	-2	15	6	9.6
COc1ccc(NC(=O)CCCC(=O)O)cc1Cl	4	-1	3437	1	11	-6	0.4
COc1ccc(CCN2C(=O)C3C4CC(C5C(C(=O)NN)=NOC45)C3C2=O)cc1OC (centres undefined)	1	-22	2153	-8	nt	nt	-1.3
CCOc1ccc(NC(=O)CSc2nnc(N)s2)c([N+](=O)[O-])c1	15	-27	4169	-2	8	13	8.1
O=C(O)Cn1cnc2scc(-c3ccccc3)c2c1=O	13	-3	3343	-17	-1	-2	4.3
Cc1occc1C(=O)Nc1ccc2c(c1)OCO2	-4	-54	4862	14	0	-2	2.5
O=C(NCCN1CCOCC1)/C(=C/c1ccco1)NC(=O)c1ccccc1	4	1	4425	-1	6	-5	1.5
COc1cc(C(=O)NC(C)c2cccc3ccccc23)cc(OC)c1OC (centres undefined)	5	-19	3326	1	0	6	1.0

(list continues)
SMILES	ugtP null kill	PrP 5UTR inh	Autofluor counter	BJeLR viability	Mtb hypoxia inh	Mtb hypoxia inh growth	Sa RN4220 lethal
Cc1ccc(C(=O)NC2CCc3ccccc3C2=O)cc1 (centres undefined)	6	-85	4525	4	15	4	1.7
C=CCN(C(=O)CNC(=O)c1ccco1)C(C(=O)NC1CCCC1)c1ccc(OC)cc1 (centres undefined)	10	-16	5690	-10	-1	3	1.0
Cc1ccc(S(=O)(=O)N(Cc2ccccc2)c2ccccc2C(=O)Nc2ccccc2C(=O)NCc2ccco2)cc1	-6	-20	2114	2	-2	1	10
CC(=O)Nc1ccc(NC2=CC(=NS(=O)(=O)c3cccs3)c3ccccc3C2=O)cc1	-1	nt	nt	nt	8	11	20
O=c1[nH]c(N2CCc3ccccc3C2)nc2c1CCC2	-7	2	?	1	20	12	3.1
Cc1nn(C)c(Cl)c1CN1CCC(CO)(CCOc2ccccc2)CC1	-4	-10	3559	3	9	8	5.4
C/C(=N\N=C1\NC(=O)C(CC(=O)Nc2ccc(C)c(Cl)c2)S1)C(C)C (centres undefined)	nt	-12	2181	-5	nt	nt	nt
S=C(Nc1ccccc1)N1CCN(C/C=C/c2ccccc2)CC1	7	0	4618	2	5	7	3.2
CC(SC1=NCCN1S(=O)(=O)c1ccccc1)c1ccccc1 (centres undefined)	6	-20	5996	-5	1	-1	6.8
O=c1cc(-c2ccc(OCc3ccccc3)cc2)oc2cc(OCc3ccccc3)cc(OCc3ccccc3)c12	7	-20	3552	nt	-5	6	4.9
O=C(c1ccc(Cl)c(S(=O)(=O)Nc2ccc(F)cc2)c1)N1CCN(c2ccccn2)CC1	23	5	7562	5	5	5	-3.1
Cc1ccc([N+](=O)[O-])cc1S(=O)(=O)Nc1ccc(C(=O)NCc2ccccn2)cc1	9	-9	?	11	-5	-6	4.3
O=C(O)/C=C1\NC(=O)c2ccccc21	-2	-20	4999	8	nt	nt	-3.9
CCOc1ncccc1C(=O)N1CCN(C(c2ccccc2)c2ccccc2)CC1	7	-28	4234	0	11	7	-1.2
O=C(O)C1CSCN1S(=O)(=O)c1cccc2nsnc12 (centres undefined)	2	-3	11254	-12	2	9	2.0
COc1ccc(N(CC(=O)NC2CCCC2)C(=O)Cn2nnc(-c3ccc(F)cc3)n2)cc1OC	-5	-9	15949	-11	-2	-7	2.5
COc1ccc(S(=O)(=O)Cc2ccc(C(=O)NC3CCCC3)o2)cc1	11	-26	6252	-2	nt	nt	0.0
CCOc1ccc(CCNC(=O)CCCN2C(=O)c3ccccc3C2=O)cc1OCC	0	-25	21585*	1	7	6	5.2
CC(C)(C)CC(C)(C)NC(=O)c1ccc2snnc2c1	8	-15	4348	-1	nt	nt	3.9
CCC(C)[C@H](NC(=O)N1CC(=O)Nc2ccccc21)C(=O)N1CCC[C@H]1C(=O)O (some centres undefined)	-12	-12	5712	-5	nt	nt	4.9
Cc1nn(C)cc1C(C)NC(=O)c1cc(COc2cccc3cnccc23)on1 (centres undefined)	13	-8	4184	0	-12	-3	4.6
COc1ccc(C(=O)NC2CC(C)(C)Cc3c2cnn3-c2ccccc2)cc1OC (centres undefined)	3	-2	6373	-4	1	-4	0.3
COC(=O)c1[nH]c2ccc(Cl)cc2c1NC(=O)Oc1ccccc1	2	-17	2847	8	nt	nt	5.3
O=C(O)c1ccc2c(c1)-c1cc(C(=O)O)ccc1S2(=O)=O	6	-10	5117	-1	1	-5	2.3
CCN(CC)c1ccc(CNCCc2ccc(F)cc2)cc1	-7	-19	3844	-6	4	7	2.5
Cc1ccc2occ(-c3nn[nH]n3)c(=O)c2c1	14	-16	3022	-11	2	11	3.0
O=C(O)Cc1nc2nc3c(c(=O)n2[nH]1)CCCC3	5	-9	5257	9	5	-7	-2.0

Ordered by length of the SMILES (low to high): some entries from above
SMILES	ugtP null kill	PrP 5UTR inh	Autofluor counter	BJeLR viability	Mtb hypoxia inh	Mtb hypoxia inh growth	Sa RN4220 lethal
O=C(O)Cc1nc2nc3c(c(=O)n2[nH]1)CCCC3	5	-9	5257	9	5	-7	-2.0
COC(=O)c1[nH]c2ccc(Cl)cc2c1NC(=O)Oc1ccccc1	2	-17	2847	8	nt	nt	5.3
COc1ccc(C(=O)NC2CC(C)(C)Cc3c2cnn3-c2ccccc2)cc1OC (centres undefined)	3	-2	6373	-4	1	-4	0.3

Assay outcomes (PubChem)
